Assay outcomes from PubChem.
HCMV UL50-53 inh – inhibitors of HCMV UL50-UL53 interaction, biochemical, HTRF. HCMV UL50-UL53 nuclear egress complex (human cytomegalovirus). normalized percent inhibition. inhibition, % (test concentration not listed). hit rate 0.15% among 190,000. AID 1918969, 2023;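 active = both replicates at 50% or more, plus weaker picks with an unusually low signal ratio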;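 note: stock transfer was 100 nL into about 20 µL; 0% = negative control wells and 100% = wells with untagged competitor protein; inactives centre near -12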
GIV-Gai inh – inhibitors of GIV peptide binding to Galpha-i3, primary screen, biochemical, fluorescence polarization, FITC-GIV GBA peptide, rat Galphai3 | Guanine nucleotide-binding protein G(i) subunit alpha-3 (Rattus norvegicus), P08753 | 90 min; hits give low values; scaled: aluminum fluoride 0%, vehicle 100% | percent of control (FP), % (test concentration not listed) | hit rate 0.42% among 210,000 | AID 1224905, 2016;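 active = replicate mean at 85% of control or lower, very high polarization wells dropped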;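 note: wells of about 15 µL received 100 nL stock; the first replicate is given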
Target sequence (P08753 whole entry, looked up): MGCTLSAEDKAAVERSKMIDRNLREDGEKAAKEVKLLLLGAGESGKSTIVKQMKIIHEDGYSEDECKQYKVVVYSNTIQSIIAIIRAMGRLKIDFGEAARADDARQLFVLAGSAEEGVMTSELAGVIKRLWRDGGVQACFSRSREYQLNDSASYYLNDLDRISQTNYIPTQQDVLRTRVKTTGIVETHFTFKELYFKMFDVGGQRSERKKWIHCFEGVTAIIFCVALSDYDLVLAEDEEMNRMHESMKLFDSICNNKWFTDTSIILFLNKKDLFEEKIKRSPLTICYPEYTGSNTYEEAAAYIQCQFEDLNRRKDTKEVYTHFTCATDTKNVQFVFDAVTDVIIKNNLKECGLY
Sa growth 42C – S. aureus growth inhibition at 42 and 30 °C, primary screen, LtaS inhibitor project, RN4220, two temperatures. OD600, 20 h, 42 °C; hits give low values. relative growth, % (test concentration not listed). hit rate 0.53% among 170,000. AID 720641, 2013;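 active = growth at 42 °C up to 50% and 20 or more points under that at 30 °C, or under 10% at both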;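 note: 300 nL library stock went into each well; scaled to the means of positive and negative controls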
Sa growth 42C second temp – further read-out of Sa growth 42C, marked with its call; relative growth, %; measured here: growth at 30 °C;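 optical density after 20 h as mean of two plates; 100% = untreated growth and lower means inhibition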
An asterisk follows results filed as active; . = not tested or not shown. Rows were taken by chance; 0.83% or so of the library scored in one or more.

Below each compound – HCMV UL50-53 inh	GIV-Gai inh	Sa growth 42C	Sa growth 42C second temp
(1) Cn1cc(S(=O)(=O)N2CCOCC2)cc1C(=O)Nc1ccc(Cl)c(C(F)(F)F)c1
  -20	99	104	94
(2) O=C(O)CC(C(=O)Nc1ccccc1I)C1CCCO1 (stereo not given)
  6	103	105	94
(3) CC(C)(C)c1ccc(S(=O)(=O)CCSc2nc3c(cc2C#N)CCCC3)cc1
  .	100	105	88
(4) O=C(NCCCN1CCOCC1)c1nn2c(C(F)(F)F)cc(-c3ccc(Cl)cc3)nc2c1Cl
  -10	106	.	.
(5) C[C@@H]1NC(=O)[C@@H]2C[C@@H](OC(=O)c3ccccc3)CN2C1=O
  25	104	83	82
(6) CC(C)c1ccc2occ(CC(=O)Nc3nnc(C(C)C)s3)c2c1
  -5	106	106	97
(7) CC(=O)NC1=NC(=O)C(C)S1 (stereo not given)
  -23	.	103	86
(8) CC(C)(C)c1csc(-c2ccc(O)cc2)n1
  -20	.	49	60
(9) COc1ccc(-c2ccnc(SCC(=O)N3CCN(c4ccccc4)CC3)n2)cc1
  -21	98	108	84
(10) CN1C(=O)C2CCCCN2c2ccc(C(=O)N3CCC(C(N)=O)CC3)cc21 (stereo not given)
  -16	104	.	.
(11) O=C(O)Cn1c(=O)oc2cc(Cl)ccc21
  2	104	97	96
(12) O=C(NCc1ccc2c(c1)OCO2)C1CCCN(C(=O)c2cc(-c3ccncc3)n[nH]2)C1 (stereo not given)
  -25	102	.	.
(13) COc1cccc(CNC(=O)c2oc3ccc4c(c3c2C)C(=O)CC(C)(C)O4)c1OC
  -37	103	108	84
(14) CN1CCC(N(C)CC(O)COCc2ccccc2F)CC1 (stereo not given)
  -13	.	95	92
(15) C#CCn1c(=NC(C)=O)sc2cc(NC(C)=O)ccc21
  -16	101	102	92
(16) COc1cc(NS(=O)(=O)c2ccc3c(c2)CC(=O)N3)cc(OC)c1OC
  -15	103	97	87
(17) Cn1ccnc1S(=O)(=O)/C(C#N)=C/c1ccccc1Cl
  1	102	94	95
(18) Cc1cc(OC(=O)C2CC(=O)N(c3ccc(F)cc3)C2)ccc1N1C(=O)CCC1=O (stereo not given)
  -34	102	96	92
(19) O=C(c1ccc2c(c1)OCO2)N1CCN(CCN2C(=O)c3cccc4cccc(c34)C2=O)CC1
  -37	101	.	.
(20) O=C(O)CCC(=O)Nc1cccc(C(=O)Nc2cccc(Cl)c2)c1
  -8	96	110	78
(21) O=C(Nc1ccccc1-c1nc2ccccc2[nH]1)c1ccc(Oc2ccccc2)cc1
  0	101	.	.
(22) Nc1cc(C(F)(F)F)ccc1-n1ccnc1
  -23	.	115	106
(23) O=C(NCc1ccc(F)cc1)c1ccc2c(=O)nc3c(-c4ccccc4)n[nH]n3c2c1
  79	111	.	.
(24) CCOc1c(Nc2ccc(OC)cc2OC)c(=O)c1=O
  -32	104	.	.
(25) CC(C)(C)CC(=O)Nc1nc2ccc(S(C)(=O)=O)cc2s1
  5	.	91	81
(26) Cc1cc(Cl)c(CC(=O)O)c(Cl)n1
  5	.	89	95
(27) CCOC(=O)c1[nH]c(C)c(CCC(=O)O)c1C
  -25	94	89	85
(28) COc1cc(OC)c(CC2C(=O)Nc3ccc(Br)cc32)c(OC)c1 (stereo not given)
  -10	105	.	.
(29) CCCCOc1ccc(CNC(=O)c2cnc3sc(N4CCCCCC4)nn3c2=O)cc1
  .	100	105	91
(30) C[C@H](c1ccccc1)N1C[C@@H](CO)OC1=O
  -20	.	95	87
(31) CCc1ccc(NC(=O)c2cnn(-c3ccc(Cl)cc3)c2C2CCNCC2)cc1
  -3	100	.	.
(32) Cc1cc(C)cc(NC(=O)Cn2c(C(F)(F)F)nc3ccccc32)c1
  -19	106	107	88
(33) CC1COc2c(N3CCN(C)CC3)c(F)cc3c(=O)c(C(=O)N4CCN(S(=O)(=O)c5ccccc5)CC4)cn1c23 (stereo not given)
  -32	.	90	88
(34) O=C(OC[C@H]1O[C@H](OC(=O)c2cc(O)c(O)c(OC(=O)c3cc(O)c(O)c(O)c3)c2)[C@H](OC(=O)c2cc(O)c(O)c(OC(=O)c3cc(O)c(O)c(O)c3)c2)[C@@H](OC(=O)c2cc(O)c(O)c(OC(=O)c3cc(O)c(O)c(O)c3)c2)[C@@H]1OC(=O)c1cc(O)c(O)c(OC(=O)c2cc(O)c(O)c(O)c2)c1)c1cc(O)c(O)c(OC(=O)c2cc(O)c(O)c(O)c2)c1
  34	.	63	78
(35) CC(C(=O)OCC(=O)c1ccc[nH]1)N1C(=O)c2ccccc2C1=O (stereo not given)
  -11	.	114	99
(36) O=C1CC2(CCCC2)C(=O)N1c1ccc(OC(F)(F)F)cc1
  -4	104	89	94
(37) CC(=O)NCc1nc(-c2ccc(C)cc2)no1
  -3	98	.	.
(38) COc1ccc(C)cc1NC(=O)NC(C)c1c(-n2cccc2)sc(C)c1C (stereo not given)
  -24	97	113	98
(39) CC1CC(C)CN(C(=O)COC(=O)/C=C/c2ccco2)C1 (stereo not given)
  -70	.	94	80
(40) CCCOc1cccc(C2Nc3ccccc3NC3=C2C(=O)CC(C)(C)C3)c1 (stereo not given)
  7	99	.	.
(41) COC(=O)c1ccc(CSc2nc3c([nH]c4ccccc43)c(=O)n2-c2cccc(OC)c2)o1
  .	105	126	85
(42) Oc1ccc(/C=N/N=C/C2=C(N3CCOCC3)C(=C\c3ccccc3)/CC2)c(O)c1
  -20	.	77	86
(43) NC(=O)Cn1c(=O)n(CCCCCC(=O)NCc2ccccc2)c(=O)c2sccc21
  17	103	110	94
(44) COC(=O)c1sccc1S(=O)(=O)N(CC(=O)NCc1ccc(C)cc1)c1ccc(C)c(C)c1
  .	96	79	92
(45) Cc1ccc(-c2c(C(=O)N3CCN(c4cccc(C)c4)C(C)C3)oc(=O)c3ccccc23)cc1 (stereo not given)
  -20	105	98	87
(46) CCc1ncc(C(=O)Nc2cccc(Cl)c2)c(C)n1
  2	102	.	.
(47) CN1CCN(C(=O)Nc2ccccc2)c2cccnc21
  -24	95	.	.
(48) CCN(CC)C(=O)CSc1nc2cc3c(cc2c(=O)n1Cc1ccc(OC)cc1)OCO3
  .	103	96	79
(49) CCSc1ccc(-c2sc(-c3ccccc3)nc2C)nn1
  -39	104	.	.
(50) CCc1ccc(NC(=O)Nc2ccc3c(c2)oc(=O)n3C)cc1
  -20	100	.	.

Continuation.
Below each compound – HCMV UL50-53 inh	GIV-Gai inh	Sa growth 42C	Sa growth 42C second temp
(51) Cc1cccc(C(=O)N2CCc3cc(CNC(=O)COc4ccc(Cl)cc4)ccc32)c1
  .	105	154	96
(52) N#Cc1c(-c2ccco2)cc(-c2cccs2)nc1OCc1ccc(F)cc1
  -15	103	94	82
(53) CCOc1ccc(N(CC)S(=O)(=O)N2CCCC(C(=O)Nc3ccc(OC)c(OC)c3)C2)cc1 (stereo not given)
  .	109	90	95
(54) Cc1cn2c(=O)cc(COc3cccc(NC(=O)c4cccc(F)c4)c3)nc2s1
  -2	100	106	89
(55) CC(=O)NC(c1ccccc1)c1c(O)ccc2ccccc12 (stereo not given)
  -10	101	117	92
(56) COc1ccc(OC)c2sc(N3CCN(C(=O)C4COc5ccccc5O4)CC3)nc12 (stereo not given)
  .	98	89	89
(57) COc1ccc(CCNC(=O)C(Sc2ccc(Cl)cc2)c2ccccc2)cc1OC (stereo not given)
  -24	105	105	85
(58) COCCNC(=O)Cn1ncn2nc(-c3ccccc3)cc2c1=O
  -6	103	99	91
(59) CC(=O)Nc1ccc(S(=O)(=O)N(C)C)cc1
  -15	99	90	90
(60) Cc1cc2oc(C(=O)N(Cc3ccccc3F)C3CCS(=O)(=O)C3)c(C)c2cc1Cl (stereo not given)
  -3	100	109	81
(61) COC(=O)C(C)Oc1ccc(C(=O)O)cc1OC (stereo not given)
  -7	101	100	102
(62) CC(Oc1ccc(F)cc1)C(=O)NN (stereo not given)
  -23	.	76	88
(63) Cc1nn(CCCC(=O)NCc2ccccc2)c(=O)c2nccn12
  2	101	99	97
(64) Cc1ccc(Nc2nc(Nc3ccc(C)cc3)nc(-n3sc(=S)nc3C)n2)cc1
  .	98	113	79
(65) Cc1ccccc1NC(=O)C(C)(C)c1ccccc1
  -5	.	106	94
(66) CCOC(=S)NC(C)(C)C
  -3	104	99	100
(67) Cc1nc(C(F)(F)F)ccc1C(=O)Oc1ccc2c(c1)OCO2
  .	104	102	85
(68) Cc1cccc(OCc2nc3c4ccccc4ncn3n2)c1C
  -9	105	.	.
(69) CCN(CC)CCCNC(=O)c1sc2nc3n(c(=O)c2c1C)CCCCC3
  6	104	99	100
(70) CCN1C(=O)C(O)(c2c(C)[nH]c3ccccc23)c2ccccc21 (stereo not given)
  -17	96	90	85
(71) COC(=O)c1ccccc1NC(=O)Nc1ncn(Cc2cccc(C(F)(F)F)c2)n1
  2	101	96	96
(72) CC(C)(C)C1COC(CC2=NC(C(C)(C)C)CO2)=N1 (stereo not given)
  -2	100	125	106
(73) Cc1c(C(=O)Nc2cc(F)ccc2F)sc2nc(-c3ccc(F)cc3)cn12
  .	112	94	99
(74) O=S(=O)(c1ccc(Br)cc1)N1CCN(c2nc3ccccc3n3cccc23)CC1
  -40	99	.	.
(75) COC(=O)c1sccc1S(=O)(=O)N(CC(=O)Nc1cc(F)ccc1F)c1ccc(C)c(C)c1
  .	106	109	101
(76) CCCn1c(CCC(=O)NCc2ccc(Cl)cc2)nc2cccnc21
  -3	105	109	85
(77) CN(C)CCCC1(O)c2ccccc2CCc2ccccc21
  -3	100	119	115
(78) COc1cccc2c1NC(c1ccccc1[N+](=O)[O-])C1CC=CC21 (stereo not given)
  -4	106	.	.
(79) COc1cccc(NC(=O)c2c(C(=O)Nc3ccccc3)sc3nc(C)cc(=O)n23)c1
  -4	101	100	84
(80) N#Cc1ccc(NC(=O)c2cc(-c3cccc(Cl)c3)on2)cc1
  -7	100	102	94
(81) O=C(COC(=O)c1ccc(Br)o1)Nc1c(Cl)cccc1Cl
  -22	.	122	85
(82) COc1ccc2oc(=O)cc(CN3CCN(C(=O)c4ccccc4)CC3)c2c1
  -16	100	95	85
(83) CN(C(=O)c1cc2c(Cl)nc3ccccc3c2s1)C1CCCCC1
  .	106	121	94
(84) Cc1coc2cc3oc(=O)c(CCC(=O)N4CCCC4)c(C)c3cc12
  -7	105	103	75
(85) O=C(N=C=S)c1ccc(Cl)cc1
  -18	.	44	26
(86) CCOc1ccc(NC(=O)CCn2c(C(F)(F)F)nc3cc(S(=O)(=O)N(C)C)ccc32)cc1
  -4	108	.	.
(87) Cc1ccc(N(Cc2ccccc2F)S(C)(=O)=O)c(C)c1
  9	105	94	89
(88) O=C(CSc1n[nH]c(=O)n1-c1cccnc1)c1ccc(N2CCOCC2)cc1
  -19	108	97	92
(89) Cc1cc(C)n2nc(S(=O)(=O)NC3CCCCC3)nc2n1
  -7	.	79	66
(90) Cn1cc(C(=O)N2CCCC2)c2[nH]c(=O)n(-c3ccc(Cl)cc3)c(=O)c21
  -28	98	.	.
(91) CCOC(=O)CSc1nnc(CNc2ccc(C)cc2C)n1-c1ccccc1
  4	108	138	119
(92) OC[C@H]1O[C@@H](n2cnc3c(NC4CCCCC4)ncnc32)[C@H](O)[C@@H]1O
  -7	101	.	.
(93) O=C(CSc1nc2ccccc2o1)c1cc2ccccc2o1
  12	.	101	92
(94) CC(C)CC(=O)Nc1nnc(S(=O)(=O)N(C)c2ccc(Cl)cc2)s1
  5	100	106	96
(95) Cc1csc2sc(-c3ccnc(SCC(=O)c4ccccc4)n3)c(C)c12
  -34	101	100	87
(96) COc1ccc(C2CC(=O)N(c3ccc(F)c(C)c3)C(=O)C2)cc1OC
  2	105	.	.
(97) Cc1ccc(NC(=O)Cn2nc(C(F)(F)F)c3c2CCCC3)cc1C
  -45	103	81	86
(98) COc1ccc(Cn2cc(S(=O)(=O)c3ccc(Cl)cc3)c(=O)c3cc4c(cc32)OCO4)cc1
  -8	112	99	88
(99) Cn1nc(Cl)c(Cl)c1Oc1ccccc1
  -10	102	.	.
(100) Cc1ccc(/C=c2\s/c(=C(/C#N)C(=O)N3CCCC3)n(Cc3ccco3)c2=O)s1
  -39	.	71	82

Next records follow.
Below each compound – HCMV UL50-53 inh	GIV-Gai inh	Sa growth 42C	Sa growth 42C second temp
(101) CCCCn1c(N)c(N(C)C(=O)c2ccc(NC(=O)CSc3nnnn3C)cc2)c(=O)[nH]c1=O
  -28	.	77	94
(102) CCOc1nc(NC(C)C)nc(NC(C)C)n1
  -24	102	103	76
(103) CC(C)Cn1c(O)c(NC(=O)N=N)c2ccccc21
  -22	.	96	98
(104) Cc1cccc(CNc2nc3nc(C(C)C)cc(=O)n3[nH]2)c1
  -23	103	.	.
